Assay outcomes (PubChem)
H5N1 CPE: MDCK cell protection from H5N1 avian flu | AID 740 | inhibition, % at 50 µM | actives 0.07% (n = 96,000) | cytopathic effect, luminescence, 72 h; active compounds read high; no value below 0 was filed and about half of the inactive calls have no number; reference of the scale not given here; in the data active = inhibition above about 25%
Active calls of the source: *; i = inactive.

The first 6 compounds, to show the layout:
SMILES | H5N1 CPE
Cc1nc2ccc(NC(=O)c3ccc(F)c(S(=O)(=O)N4CCOCC4)c3)cc2s1 | 1.0
CCN(CC)CCCn1c(C)cc2c(c1=O)C(c1ccc(OC)c(OC)c1OC)C(C#N)=C(N)O2 (stereo unspecified) | 1.0
Cc1cccc(N2CCN(C(=O)Cn3cccc3C(=O)c3ccccc3)CC2)c1C | i
COc1cccc(NC(=O)CSc2nnc(-c3ccc(C)cc3)o2)c1 | i
CCOC(=O)CC(=O)CSc1ccc2nnc(-c3ccc(F)cc3)n2n1 | 2.5
Cc1ccc(CCNC(=O)C23CN(Cc4ccccc4)CC2C(c2ccc([N+](=O)[O-])cc2)=NO3)cc1 (stereo unspecified) | 0.9

The list itself (from the top)
SMILES | H5N1 CPE
Cc1nc2ccc(NC(=O)c3ccc(F)c(S(=O)(=O)N4CCOCC4)c3)cc2s1 | 1.0
CCN(CC)CCCn1c(C)cc2c(c1=O)C(c1ccc(OC)c(OC)c1OC)C(C#N)=C(N)O2 (stereo unspecified) | 1.0
Cc1cccc(N2CCN(C(=O)Cn3cccc3C(=O)c3ccccc3)CC2)c1C | i
COc1cccc(NC(=O)CSc2nnc(-c3ccc(C)cc3)o2)c1 | i
CCOC(=O)CC(=O)CSc1ccc2nnc(-c3ccc(F)cc3)n2n1 | 2.5
Cc1ccc(CCNC(=O)C23CN(Cc4ccccc4)CC2C(c2ccc([N+](=O)[O-])cc2)=NO3)cc1 (stereo unspecified) | 0.9
C/C(N)=C(/C#N)C(=O)CSc1nnc(Cc2ccccc2F)n1N | i
CCOC(OCC)P(=O)(C(C)C)C(C)C | 0.4
Cc1ccc(CN2C(=O)CCC2C(=O)NCC2CCCO2)cc1 (stereo unspecified) | 0.1
COc1ccccc1N1CCN(C(=O)CCn2c(=O)[nH]c3ccsc3c2=O)CC1 | 0.6
O=C(c1cccn2c(=O)c3cc(Cl)ccc3nc12)N1CCN(Cc2ccc3c(c2)OCO3)CC1 | i
CC(C(=O)Nc1ccc(Br)cc1C(=O)c1ccccc1)N1CCCCC1 (stereo unspecified) | 1.6
COc1cccc(CNc2cccc3cccnc23)c1O | 1.4
COc1ccc(C(C)=O)cc1CSc1nnc(-c2ccc(Cl)cc2)n1-c1ccccc1 | 5.7
Cc1nnc(SCc2nc(N)nc(Nc3ccccc3)n2)s1 | 0.2
Cc1cc(C)n(CC(=O)c2ccc(Br)cc2)c(=O)c1C#N | i
Cn1c(SCc2ccc(C#N)cc2)nnc1-c1ccccc1 | i
Cc1cc(C)n(-c2nnc(C)n2NS(C)(=O)=O)n1 | i
CCn1nnc(NC(=O)c2cccnc2Cl)n1 | i
Cc1ccc(S(=O)(=O)NCC(=O)OCC(=O)Nc2ncc(Cl)cc2Cl)cc1 | 0.6
CC1(C)Cc2cccc(OCC(N)=O)c2O1 | i
Cc1cc(C(=O)CSc2nnnn2-c2ccccc2)c(C)n1CCc1ccccc1 | 0.1
O=C(c1ccccc1)N1CCN(C(=O)N2CCCCC2)CC1 | i
O=C(Nc1nccs1)c1cc2sccc2n1Cc1ccc(Cl)cc1 | i
Cc1ccc(Sc2ncccc2COC(=O)Nc2ccccc2)cc1 | i
(list continues)
SMILES | H5N1 CPE
c1ccc2c(c1)CC1(CCCC1)n1nnnc1-2 | 1.2
COc1ccc([N+](=O)[O-])cc1COc1ccc2c(-c3ccccc3)cc(=O)oc2c1 | i
COc1ccccc1-c1noc(-c2ccncc2)n1 | i
O=C(c1ccco1)N1CCN(c2ccc(S(=O)(=O)N3CCCC3)cc2)CC1 | 0.4
Cc1cc(C)n(CC(O)CN2c3ccccc3Sc3ccccc32)n1 (stereo unspecified) | 1.5
Cn1nnnc1SCC(=O)Nc1ccccc1C(=O)NCc1ccccc1 | 0.2
CCOc1ccc2cc(C#N)c(SCC(=O)N3CCOCC3)nc2c1 | 0.4
CCCn1c(SCC(=O)NCc2ccco2)nc2c1c(=O)n(C)c(=O)n2C | 2.0
c1nc(NC2CCCC2)c2[nH]cnc2n1 | 1.1
CCOC(=O)c1sc(NC(=O)CSc2nnnn2-c2ccccc2)c(C(=O)OCC)c1C | 0.8
Cc1ccc(NC(=O)C2CCN(S(C)(=O)=O)CC2)cc1C | 0.3
CCOC(=O)c1cc2sccc2n1CC(=O)Nc1ccc(OC)c(OC)c1 | 0.1
Cc1ccccc1OCCCn1c(=O)sc2ccccc21 | i
COc1ccc(S(=O)(=O)n2nc(OC(=O)c3c(-c4ccccc4Cl)noc3C)cc2N)cc1 | 1.1
CCCCCn1c(=O)[nH]c2cc(C(=O)NCc3ccc4c(c3)OCO4)ccc2c1=O | i
CCc1ccccc1-n1cnc2cc(C(=O)O)ccc21 | 0.9
CN(CC(=O)NC(c1ccccc1)c1ccccc1)Cc1nc2ccccc2c(=O)[nH]1 | i
C=C1c2cc(CC)ccc2NC(=O)N1c1ccc(C)cc1 | i
O=C(Nc1ncc2c(n1)CC(c1ccccc1)CC2=O)c1ccco1 (stereo unspecified) | 1.3
CCCC(O)(CCC)C(=O)NNc1ccccc1 | i
CN(C)CCNC(=O)CCCNC(=O)Cn1cnc2sc3c(c2c1=O)CCCC3 | i
O=C(Nc1ccccc1)/C(=C\c1ccncc1)NC(=O)c1ccccc1 | i
Cc1cc(N=CC2=C(O)CCCC2=O)no1 | 0.3
COc1ccc2c(c1)c1nnc(SC)nc1n2C | 1.1
CCOC(=O)N1CCC(N2C(=O)c3ccccc3C2Nc2cccnc2)CC1 (stereo unspecified) | i

Three entries already listed, sorted by heavy-atom count, ascending:
SMILES | H5N1 CPE
Cc1ccc(NC(=O)C2CCN(S(C)(=O)=O)CC2)cc1C | 0.3
O=C(c1ccccc1)N1CCN(C(=O)N2CCCCC2)CC1 | i
CN(C)CCNC(=O)CCCNC(=O)Cn1cnc2sc3c(c2c1=O)CCCC3 | i

Next results
SMILES | H5N1 CPE
Cc1ccccc1-c1nc(-c2ccc(NC(=O)c3cccs3)cc2)no1 | 5.4
CCOC(=O)N1CCN(CC(=O)Nc2c(C(=O)OC)[nH]c3cccc(Cl)c23)CC1 | 0.1
CN=c1oc2ccc(Cl)cc2cc1C(N)=O | 0.8
COc1ccc2cnn(-c3ccccc3)c(=O)c2c1OC | i
COC(=O)C1=C(C(=O)c2ccc(C)cc2)C(c2ccccc2)n2nnnc2N1 (stereo unspecified) | i
Cc1ccc2oc(=O)c3cnn(CC(=O)NCCc4ccsc4)c3c2c1 | 1.1
CCOC(=O)c1c(C)[nH]c(C(=O)OCC(=O)Nc2cc(C)c(Cl)cc2OC)c1C | i
Fc1ccc(Cn2nnnc2C(c2ccc(Cl)cc2)N2CCSCC2)cc1 (stereo unspecified) | i
CCSc1oc(-c2ccccc2)nc1S(=O)(=O)c1ccccc1 | 1.6
O=C(NCCc1csc(-c2cccnc2)n1)c1ccco1 | 2.4
CCn1c(C2CC(=O)N(c3cc(C)cc(C)c3)C2)nc2ccccc21 (stereo unspecified) | 1.5
CCOC(=O)c1nc2nc(C)cc(=O)n2[nH]1 | i
Cc1c(/C(O)=C2\C(=O)C(=O)N(CCN(C)C)C2c2cccs2)cnn1-c1ccccc1 (stereo unspecified) | i
CCn1cc(C2=NCC(C)O2)c2ccccc21 (stereo unspecified) | i
CCOc1cc2[nH]c(=O)n(Cc3cccc(OC)c3)c(=O)c2cc1OCC | 0.7
CCCOC(=O)C1=C(C)NC2=C(C(=O)C(C(=O)OC)C(C)C2)C1c1ccc(N(CC)CC)cc1 (stereo unspecified) | 0.2
O=C(N/N=C1/CN2CCC1CC2)c1cc2ccccc2cc1O | 0.2
Cc1cc(C)c(C#N)c(SCS(=O)Cc2ccccc2)n1 (stereo unspecified) | i
CCc1ccc(S(=O)(=O)N2CC(=O)Nc3ccccc32)cc1 | i
Cc1ccc(CCN2CC(C(=O)N3CCN(c4ccc(F)cc4)CC3)CC2=O)cc1 (stereo unspecified) | i
COc1ccc(OC)c(C2CC(=O)c3c([nH]c(C(=O)OC(C)C)c3C)C2)c1 (stereo unspecified) | i
O=C(NC1CCCCCC1)C1CCN(S(=O)(=O)c2ccc(F)cc2)CC1 | i
N#CC1=C(N)Oc2cc(O)ccc2C1c1cccs1 (stereo unspecified) | 0.3
O=C(COC(=O)c1cccs1)Nc1ccccc1 | 0.2
COc1ccc(-c2c(C)oc3c(CN4CCN(CCO)CC4)c(O)ccc3c2=O)cc1OC | i
Further entries follow.
SMILES | H5N1 CPE
CC(C)CCNC(=O)CSc1nc2ccsc2c(=O)n1NC(=O)c1ccccc1 | 0.2
CCCCCc1c(C)nc(Nc2nc(C)c3cc(OC)ccc3n2)[nH]c1=O | i
Cc1ccc(P(=O)(O)c2ccc(C)cc2)cc1 | 0.2
Cc1c(C(=O)NCc2ccc(F)cc2)c(-c2ccccc2)nn1-c1ccccc1 | i
Cc1cc(C)c(C#N)c(SCC(=O)c2ccc(Cl)cc2Cl)n1 | i
CCCn1c(SCC(=O)Nc2sc(C)c(C)c2C(=O)OCC)nc2c1c(=O)n(C)c(=O)n2C | 3.4
COc1cc(OC)c(-c2nn3c(C4CCCCC4)nnc3s2)cc1OC | i
COc1cccc(C(=O)Oc2cc3c4c(c2)C(C)=CC(C)(C)N4C(=O)C3=O)c1 | 1.0
O=C(CCSc1nnc(-c2ccco2)o1)Nc1ccc(Cl)cc1 | 0.3
COCCn1c(SCCCC(=O)c2ccc(Br)cc2)nnc1-c1ccncc1 | 5.7
Cc1cccc(CN(CC(=O)N/N=C/c2cccs2)S(=O)(=O)c2ccc(Cl)cc2)c1 | i
CC1=CCC2C(=O)N(c3ccc(Br)cc3C)C(=O)C2C1 (stereo unspecified) | 3.4
Cc1ccc(C)c(S(=O)(=O)N2CCN(C(=O)c3cnccn3)CC2)c1 | 0.3
CCOC(=O)CN1C(=O)C(C)(C)Oc2ccc(C(=O)Nc3ccccc3)cc21 | 1.4
CSc1ccc(S(=O)(=O)NCc2ccc(Cl)cc2Cl)cc1 | 1.1
CCN1C=C(Cc2ccccc2C)C2=C(C1)C(c1ccccc1C)C(C#N)=C(N)O2 (stereo unspecified) | i
CCN1CCN(C(=O)CN(c2ccccc2C)S(C)(=O)=O)CC1 | 0.3
Cc1ccc(C(=O)C(OC(=O)CN2C(=O)c3ccccc3C2=O)c2ccccc2)cc1C (stereo unspecified) | 1.0
Cc1ccc(N(C=NC#N)CC(=O)N2CCN(c3ccccc3)CC2)cc1 | i
O=C(CSc1nc2cccnc2n1Cc1ccccc1)NCc1ccco1 | 0.3
OCCN=c1cc(-c2ccccc2)oc2ccc(Cl)cc12 | i
O=C(NC(NC(=S)Nc1cc(Cl)ccc1Cl)C(Cl)(Cl)Cl)c1ccco1 (stereo unspecified) | i
CCOc1cc(/C=N/NC(=O)c2cccc([N+](=O)[O-])c2)ccc1OS(=O)(=O)c1ccccc1 | 1.1
Cc1nc2c3cnn(-c4ccccc4)c3ncn2n1 | 0.8
CC1CCN(S(=O)(=O)c2ccc3c(c2)c(=O)c(C(=O)N2CCCCC2)cn3C)CC1 | i
Next section.
SMILES | H5N1 CPE
O=C(CCC(=O)OCC(=O)c1ccccc1)Nc1cccc2cccnc12 | i
CC(C)(C)C(=O)Cn1c(NCCCO)nc2ccccc21 | i
COC(=O)CCn1nnc(-c2ccc(C)cc2)n1 | i
O=C(CN1C(=O)C2C3C=CC(C3)C2C1=O)NCCN1CCCc2ccccc21 (stereo unspecified) | i
CSc1cc(C)n(-c2ccccc2C)c(=S)c1C(C)=O | 1.1
CC(C)SC1=NC(C)(C)C=C(/C=C/c2ccc(Cl)cc2Cl)N1 | i
CS(=O)(=O)Nc1ccc(Cc2ccc(NS(C)(=O)=O)cc2)cc1 | i
O=C(CCn1c(=O)oc2ccccc21)N1CCOCC1 | 0.3
O=C(COc1ncnc2ccccc12)N1CCN(S(=O)(=O)c2ccc(Cl)cc2)CC1 | i
O=C(Nc1ccc2c(c1)OCCO2)c1cnccn1 | i
CCCC(=O)Nc1ccc(NC(=O)c2ccccc2OC)cn1 | i
Cc1nnc(NC(=O)CSc2nnc(Cc3ccccc3)n2Cc2ccccc2)s1 | i
COC(=O)C1=C(C)N=C2SC(C#N)=C(N)N2C1c1cc(OC)c(OC)c(OC)c1 (stereo unspecified) | 0.1
O=C(OCc1cn(-c2ccc(Cl)c(Cl)c2)nn1)c1ccccc1Cl | 0.9
CCCn1nnc(NC(=O)c2cccc(Cl)c2)n1 | i
Cc1ccc2oc(-c3cccc(NC(=O)Cc4cccs4)c3)nc2c1 | i
CC(Sc1nnc(Cc2ccc([N+](=O)[O-])cc2)o1)C(N)=O (stereo unspecified) | 0.4
CCc1cc(C(=O)OC)c(NC(=O)C2CC(=O)NN2Cc2ccccc2)s1 (stereo unspecified) | 1.4
O=C(CCCOc1ccccc1)N1CCCCC1 | 0.7
CC1(C)Oc2ccc3ccc(=O)oc3c2/C(=C/Nc2ccccc2)C1=O | 0.2
Cc1ccccc1NN1C(=O)C=CC1=O | 0.8
CN(C)S(=O)(=O)c1ccc(C(=O)Nc2nc(-c3cccs3)cs2)cc1 | 3.5
CC1=Nn2c(nnc2-c2cc(C)[nH]n2)SC1 | i
O=C1c2ccccc2CC1Sc1nnc(-c2ccncc2)o1 (stereo unspecified) | 0.6
CN(Cc1nc2ccccc2c(=O)[nH]1)C(=O)c1ccc(S(=O)(=O)N(C)C)cc1 | i

The last 2 records of the section above come first, to join the parts.
SMILES | H5N1 CPE
O=C1c2ccccc2CC1Sc1nnc(-c2ccncc2)o1 (stereo unspecified) | 0.6
CN(Cc1nc2ccccc2c(=O)[nH]1)C(=O)c1ccc(S(=O)(=O)N(C)C)cc1 | i
Cc1cc(C(=O)N2CCN(c3cccc(Cl)c3)CC2)c(C)o1 | i
COCCOC(=O)C1=C(C)NC(=O)CC1c1cc2c(cc1Br)OCO2 (stereo unspecified) | 0.6
Cc1cc(NCc2ccccn2)ccc1Br | 0.9
Cc1ccc(-c2cnc(NC(=O)c3cccc(Br)c3)s2)c(C)c1 | i
Clc1ccc(-c2nc3nc4ccccc4nc3n2Cc2ccco2)cc1 | 2.6
Cc1[nH]n(-c2ccccc2)c(=O)c1C1(C(F)(F)F)C(=O)N(c2ccc(F)cc2)C2=C1C(=O)CC(C)(C)C2 (stereo unspecified) | 1.0

Only part of the results is shown, so the mix of outcomes need not match the whole.
